# Screening results deposited in PubChem BioAssay by several laboratories.
# LANA-H2A inh: blockers of LANA interaction with H2A/H2B – biochemical, FP readout, HTS, primary screen; cell-free LANA-H2A/H2B peptide, fluorescence polarization; inhibition, % (test concentration not listed); 0.6% of 320,000 active; AID 2629, 2010; in the data active = inhibition mostly above about 10%, no sharp cut-off; inactive = mostly below about 6.7%;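 also: stock transfer was 7.5 nL into about 10 µL; 0% = median of vehicle wells and 100% = median of positive control wells; one replicate is shown; the record names a cut of 25% in any replicate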
# UCH37 DUB inh: inhibitors of human UCH37 deubiquitinase, primary screen, biochemical, Ub-AMC cleavage, fluorescence | inhibition, % (test concentration not listed) | purified proteasome/UCH37 | 0.33% of 330,000 active | Ubiquitin carboxyl-terminal hydrolase isozyme L5 (Homo sapiens), Q9Y5K5;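 active = mean of two replicates above 20%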;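 also: 0% = compound-free wells with enzyme and 100% = wells lacking proteasome; stock transfer was 100 nL into about 20 µL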
# Target sequence (Q9Y5K5 whole entry, looked up): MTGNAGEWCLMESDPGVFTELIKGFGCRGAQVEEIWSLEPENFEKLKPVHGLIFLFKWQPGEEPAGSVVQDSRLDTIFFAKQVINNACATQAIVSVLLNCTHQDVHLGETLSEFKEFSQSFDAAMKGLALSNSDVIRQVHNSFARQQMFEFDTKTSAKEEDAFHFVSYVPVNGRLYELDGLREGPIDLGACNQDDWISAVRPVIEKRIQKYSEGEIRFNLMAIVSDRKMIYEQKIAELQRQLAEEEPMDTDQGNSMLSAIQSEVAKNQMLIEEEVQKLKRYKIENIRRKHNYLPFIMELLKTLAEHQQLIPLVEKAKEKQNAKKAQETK
#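 system = Proteasome-associated human UCH37 deubiquitinase | amount = 0.15 nM proteasome as dispensed | medium = pH 7.4 Tris-HCl (50 mM) with ovalbumin, ATP-MgCl2, DTT | incubation = 30 min preincubation with enzyme, 25 min cleavage at room temperature | detection = AMC fluorescence 355/460 nm | read-out basis = percent inhibition | controls = no-proteasome and no-compound wells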
# Bfl-1 A1 inh: caspase 3/7 activation in MEF A1-2A-BIM cells, primary screen, A1 inhibitor project, cell-based, luminescence, HTS. AID 2462, 2010. Caspase-Glo 3/7 luminescence, 3 h; percent of clofoctol response, vehicle zero. caspase activation, % (concentration not given with the values). 0.066% of 330,000 active;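 active = over half of replicate activation scores above 10%, or exactly half above 10 with the replicate mean above 10; inconclusive = replicate mean below 10 yet half the replicates above 10; inactive = over half of replicates below 10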;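 also: wells of about 30 µL received 50 nL stock; many hits fall short of the cut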
# Vif A3G: inhibitors of Vif binding to APOBEC3G peptide, primary screen, biochemical, TR-FRET, GST-Vif 1-94, biotin-A3G peptide, dose response retest (AID 1117319). TR-FRET GST-Vif / biotin-A3G peptide binding; higher % means a stronger effect; test concentration not given here; strong numbers were not always called active. Virion infectivity factor (Human immunodeficiency virus type 1 group M subtype B (isolate …. inhibition, %, or IC50 in µM where a hit was titrated. 0.57% of 260,000 active;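 active = above the screen mean plus three standard deviations and confirmed in dose response; inconclusive = results disagree or hit not tested in dose response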;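 also: Vif residues 1-94 fused to GST binding biotinylated APOBEC3G peptide 110-148; 0% = full assay without inhibitor and 100% = GST in place of GST-Vif; retest series ran down from 100 µM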
# Ecoli growth: E. coli growth inhibition, primary screen, OD600 | Escherichia coli growth, 23 h; stronger effect = lower value | OD600 absorbance (no concentration beside the values) | 0.21% of 330,000 active;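 active = OD600 absorbance below the run mean of sample wells minus 3.6 SD, in any replicate, cut at about 0.56 in these data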;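 also: stock transfer was 300 nL into about 60 µL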
# HNF4A DNA FP: change in binding of human HNF4A to DNA, primary screen, biochemical, fluorescence polarization, FITC-DNA; 0.3% of 360,000 active; activity change, % at 10 µM; AID 1224865, 2016; 1 h; in the data active = activity change above about 30%, passing the limit was not always enough;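 also: controls were the assay level and a saturating level of protein; the project sought stronger binding though the title names inhibitors; some compounds called inactive have numbers as strong as hits; positive values seem to mean higher polarization but the record does not say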
# Target sequence (P41235 whole entry, looked up): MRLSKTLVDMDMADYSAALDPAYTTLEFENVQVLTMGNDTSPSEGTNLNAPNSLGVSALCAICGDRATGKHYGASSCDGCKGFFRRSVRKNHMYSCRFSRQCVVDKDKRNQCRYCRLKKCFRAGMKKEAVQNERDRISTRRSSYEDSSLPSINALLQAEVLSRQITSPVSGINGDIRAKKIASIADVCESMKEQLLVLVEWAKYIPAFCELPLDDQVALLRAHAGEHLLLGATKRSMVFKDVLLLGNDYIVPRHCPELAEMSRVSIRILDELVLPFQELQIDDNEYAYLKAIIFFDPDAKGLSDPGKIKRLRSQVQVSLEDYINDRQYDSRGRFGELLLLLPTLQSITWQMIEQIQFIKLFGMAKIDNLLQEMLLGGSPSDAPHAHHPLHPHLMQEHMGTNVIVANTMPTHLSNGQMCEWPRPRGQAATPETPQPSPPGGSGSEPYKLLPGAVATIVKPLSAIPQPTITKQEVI
# B2AR ag: beta2AR agonists driving receptor internalization, primary screen, cell-based, FAP fluorogen, flow cytometry. Beta-2 adrenergic receptor (Homo sapiens), P07550. Am2.2-beta2AR cells; reference of the scale not given here. response, % (test concentration not listed). 0.43% of 340,000 active. AID 504454, 2011;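 active = response above a set limit, near 3 SD of response in nonfluorescent compounds, cut at about 42% in these data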;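 also: stock transfer was 100 nL into about 11 µL; a reference agonist was the positive control; negative values mostly stem from fluorescent compounds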
# Numbers without * were called inactive; ? = inconclusive; / = not tested or not shown. The order is random; about 2.1% have a hit in one of these screens.
SMILES,LANA-H2A inh,UCH37 DUB inh,Bfl-1 A1 inh,Vif A3G,Ecoli growth,HNF4A DNA FP,B2AR ag
C=CCn1c(N)c(C(=O)NC2CCCCC2)sc1=S,2.9,4.9,-0.7,-4%,0.71,0.6,5
CCOc1ccc(NC(=O)c2ccccc2O)cc1,1.4,-4.1,0.1,21%,0.63,-4.0,5
CCOc1ccc(NC(=O)CC2C(=O)N(C)C(=S)N2CCCc2ccccc2)cc1 (stereo not given),-2.9,0.7,0.6,5%,0.69,0.7,17
CC(C)N1CCc2c(sc(NC(=O)c3ccc([N+](=O)[O-])o3)c2C(N)=O)C1,-1.9,/,1.3,/,/,3.6,29
N#CCCn1nc(-c2ccccc2)cc1-n1c(C(F)(F)F)nc2ccccc21,-3.4,1.4,0.5,-2%,0.74,1.7,0
O=C(COc1cccc(Cl)c1)Nc1ccc(N2CCOCC2)cc1,-5.4,-2.4,0.0,-1%,0.68,0.2,-5
CCOc1ccc(NC(=O)CN(C)C(=O)c2c(C)noc2C)cc1OCC,-1.4,1.5,-0.7,-6%,0.65,0.8,-3
COc1cccc(CC(=O)OCC(=O)NC(C)c2ccc(F)cc2)c1 (stereo not given),-12,1.6,-1.1,-7%,0.65,-5.4,-10
C/C(=N\NC(=O)c1nnn(-c2nonc2N)c1CN(C)c1ccccc1)c1ccccn1,-3.6,/,0.1,/,/,2.5,-2
CSc1nnc(NC(=O)C23CC4CC(CC(C4)C2)C3)s1,-2.7,3.3,-0.7,-3%,0.69,-2.1,-7
CC(C)OCC(O)CS(=O)(=O)Cc1ccccc1 (stereo not given),1.2,2.8,0.0,0%,0.67,2.0,6
NC(=O)Nc1cccc2ccccc12,-0.5,1.4,0.2,-8%,/,-4.1,7
Cc1ccc(NC(=O)CNC(=O)c2ccco2)nc1,6.7,-0.6,0.9,/,0.7,-0.3,4
COC(=O)c1cc(NCc2ccccc2F)ccc1N1CCOCC1,2.8,-22,-0.3,?,0.69,-3.0,2
COc1ccccc1NCC(=O)N1CCN(S(=O)(=O)c2ccccc2)CC1,-2.2,3.1,0.5,/,0.71,-0.8,-8
O=C(/C=C\NCC(=O)c1ccccc1)c1ccccc1,2.3,6.1,-1.0,0%,0.66,-2.9,13
COc1ccc2c(c1)OC[C@H]1[C@H]2N2C(=O)c3ccccc3NC(=O)[C@@]2(C)[C@H]1c1ccccc1,0.5,/,1.7,/,/,1.1,-2
CC(C(=O)Nc1ccc2c(c1)OCCO2)N1CCN(C(=O)c2ccco2)CC1 (stereo not given),6.3,3.7,0.6,-3%,0.81,1.2,2
O=C(CN(Cc1ccccc1)S(=O)(=O)c1ccc2c(c1)OCCO2)Nc1ccc2c(c1)OCCO2,-16,1.1,-0.9,?,0.69,-1.2,1
O=C(CC(O)(CC(=O)OCc1ccccc1)C(=O)OCc1ccccc1)OCc1ccccc1,/,5.9,/,2%,0.7,1.9,2
COc1ccc(OC)c(NC(=O)CSc2nc3[nH]c(=O)cc(O)c3s2)c1,/,7.1,0.2,2%,0.68,-3.9,18
CC(C)Cn1c(N)c(C(=O)COC(=O)c2cc(F)cc(F)c2)c(=O)n(C)c1=O,0.2,-0.6,1.0,9%,0.67,1.9,14
O=C(COC(=O)Cc1ccsc1)Nc1cccc(Cl)c1,6.4,-0.8,0.0,3%,0.71,-1.6,9
CC(=O)c1ccc(S(=O)(=O)N2CCN(CC(=O)NC(=O)NC3CCCCC3)CC2)cc1,6.6,-0.4,-0.3,/,0.68,-2.6,9
Cc1ccc(C(=O)C2=C(O)C(=O)N(Cc3ccco3)C2c2ccc(N(C)C)cc2)o1 (stereo not given),4.1,12,0.3,/,0.66,-0.2,5
# The list goes on:
SMILES,LANA-H2A inh,UCH37 DUB inh,Bfl-1 A1 inh,Vif A3G,Ecoli growth,HNF4A DNA FP,B2AR ag
CCCn1c(C(O)c2cc(OC)ccc2OC)nc2ccccc21 (stereo not given),-3.5,6.6,1.3,-2%,0.74,2.7,-2
OCC[C@H]1C[C@@H](O)[C@H](O)[C@]2(CCc3ccccc3CO2)O1,-0.7,3.9,-0.1,/,/,5.4,-1
Cc1n[nH]c(=O)n1-c1ccc(OCc2ccccc2)cc1,-3.6,3.8,-0.8,5%,0.67,-2.1,-16
COc1cccc(NC(=O)CSc2nc(=O)n(Cc3ccncc3)c3c2CCCC3)c1,1.0,0.3,0.1,-11%,0.72,0.3,14
CCC(C)Cn1c(O)cc2nn(-c3nc4ccccc4s3)c(=O)c-2c1C (stereo not given),3.4,0.6,-6.9,2.6µM*,0.7,-1.7,11
O=C(Nc1cc(S(=O)(=O)N2CCOCC2)ccc1N1CCCCC1)c1cc(-c2ccccn2)nc2ccccc12,0.9,-7.3,-1.0,-7%,0.7,0.0,9
CN(CC(=O)Nc1ccc(F)c(F)c1F)C(=O)CC1CCCCC1,0.3,-0.3,2.9,-3%,0.63,2.6,-6
C/C(=N\NC(=O)c1nnn(-c2nonc2N)c1-c1ccccc1)c1ccccc1O,8.0,/,1.2,/,/,-2.7,-4
COc1ccc(C(=O)N/N=C/C2CC=CCC2)cc1OC (stereo not given),3.9,/,-0.1,-12%,/,1.0,-7
CC(=O)c1ccsc1-c1c(C)cc2oc(=O)cc(-c3ccccc3)c2c1C,/,-0.4,/,/,0.73,1.2,10
Cc1cc(C)c(C(=O)CN2C(=O)NC3(CCC(C)CC3)C2=O)cc1C (stereo not given),-1.1,-0.5,0.2,15%,0.69,2.6,0
COc1ccc(S(=O)(=O)Nc2c(C)ccc3nsnc23)cc1OC,/,1.8,-0.6,-1%,0.74,-0.5,-2
COc1cccc(Cn2c(=O)oc3ccccc32)c1,-1.0,4.3,0.1,-5%,0.65,-1.3,5
O=c1c2cc(Cl)cc(Cl)c2nc2n1CCC2,6.4,1.6,0.5,-7%,0.64,1.6,-2
CCCCCc1ccc(-c2ccc(OC)cc2)nc1,1.0,2.4,-2.5,/,0.63,-2.8,3
C/C(=N\NC(=O)c1c(Cl)c(C)nn1C)c1cccc(NC(=O)c2cccc(F)c2)c1,1.3,/,0.0,/,/,6.8,7
Cc1cc(=O)oc2cc(OC(C)C(=O)NCC3CCC(C(=O)O)CC3)ccc12 (stereo not given),-1.3,-14,0.1,/,0.69,3.9,3
Cc1ccc(CNC(=O)Cn2cnc3c(OCc4ccccc4)ncnc32)o1,-4.4,3.5,-0.8,0%,0.7,1.3,1
CC(=O)N/C(=C\c1ccccc1)C(=O)OCC(=O)c1ccccc1,-6.4,-1.8,-5.2,-5%,0.68,2.4,-6
COc1ccc(N2C(C(C)=O)=NN(c3ccccc3)C2c2cccs2)cc1 (stereo not given),1.9,-2.0,0.4,22%,0.81,0.4,36
Cn1ncc(Br)c1C(=O)NC1CCCCCCC1,/,2.9,/,-8%,0.7,-7.0,-2
CSCCC(NC(=O)COc1ccccc1)C(=O)OCc1ccc(Cl)cc1 (stereo not given),/,6.6,/,5%,0.68,-2.0,8
COc1ccccc1NC(=S)N1CCN(C(=O)C2CCCO2)CC1 (stereo not given),-6.7,0.4,0.2,6%,0.72,-2.0,7
Clc1ccccc1OCCCOc1cccc2cccnc12,2.4,-2.6,-0.2,/,0.58,-0.5,-3
O=S(=O)(Nc1cc(Cl)ccc1N1CCCCC1)c1cccs1,-0.5,2.0,1.5,16%,0.7,13,1
# (more compounds)
SMILES,LANA-H2A inh,UCH37 DUB inh,Bfl-1 A1 inh,Vif A3G,Ecoli growth,HNF4A DNA FP,B2AR ag
COc1ccc(-c2nc3ccccc3c(C(=O)Nc3ccc(S(=O)(=O)Nc4cc(C)on4)cc3)c2C)cc1,6.0,0.7,0.5,9%,0.69,-0.9,2
CC(C(=O)NCC(=O)Nc1ccc(F)c(F)c1F)N1CCN(Cc2ccc(C#N)cc2)CC1 (stereo not given),1.5,-0.6,0.5,2%,0.67,0.6,-5
CCn1nnnc1SCC(=O)N1CCN(c2ccccc2)CC1,-3.0,-1.3,-0.4,-3%,0.66,3.7,-1
O=C(Nc1cccc(S(=O)(=O)NC2=NCCC2)c1)c1ccc(=O)[nH]c1,-5.0,-2.9,0.6,-11%,0.67,3.4,-9
CCN1CCN(Cc2nnc(-c3ccc(C)cc3)o2)CC1,-0.6,1.0,0.6,-2%,0.66,1.3,-5
COc1ccc(S(=O)(=O)NC(Cc2cnc[nH]2)C(=O)O)cc1 (stereo not given),7.8,/,-0.1,14%,/,1.9,-7
COc1cc(C2C(C(=O)c3ccco3)=C(O)C(=O)N2CCc2ccccc2)ccc1O (stereo not given),-0.5,10,-0.8,4%,0.7,-4.0,4
CC1CN(C(=O)c2ccc(-c3ccccc3Cl)o2)CC(C)O1 (stereo not given),/,0.3,-0.8,-10%,0.63,-0.6,-8
COc1ccc(CCNC(=O)CC2SC(=NCc3ccccc3OC)NC2=O)cc1 (stereo not given),4.7,-2.4,0.8,/,0.71,2.6,3
O=C(NCCc1ccccc1)C1CCC(Cn2c(=O)c3ccccc3n(Cc3cccc(Cl)c3)c2=O)CC1 (stereo not given),1.3,-3.1,0.6,/,0.71,1.4,-14
COc1cccc(CN(C)C(=O)CSC(C)C(=O)Nc2cc(C)on2)c1OC (stereo not given),-7.1,4.6,-0.3,-6%,0.68,1.0,-1
CSc1ccccc1NC(=O)c1cc(CC(C)C)on1,-6.8,5.2,/,-1%,0.75,-0.2,11
C/C(=N\NC(=O)c1nnn(-c2nonc2N)c1C(C)C)c1ccncc1,2.2,/,0.7,-6%,/,-0.8,-1
COc1ccc(CNCC(O)(c2ccccc2)c2ccc(Cl)cc2)cc1 (stereo not given),1.5,1.7,-0.9,9%,0.69,-1.6,12
Cc1cc(C)n2nc(C(=O)NCC(=O)Nc3ccc(F)c(F)c3)nc2n1,-0.6,5.6,0.4,5%,0.68,0.2,-11
O=C1CCCN1CCCNC(=S)Nc1ccc(Cl)cc1Cl,1.0,3.9,0.8,-10%,0.66,0.5,5
O=C(Nc1cnc2ccccn2c1=O)c1ccc(Cl)cc1,0.3,7.8,-1.0,-4%,0.68,2.6,-21
CC(=O)Nc1ccc(SC[C@H](CC(C)C)N2CCN(CCc3ccccc3)CCC2=O)cc1,1.9,0.4,-1.3,/,/,6.5,-1
O=C(c1cc(-c2ccc(F)cc2)on1)N1CCCC1,2.6,1.0,0.3,-5%,0.61,-2.8,-1
Cc1c(S(=O)(=O)NC(C)c2ccccc2)c(=O)n(C)c(=O)n1C (stereo not given),-1.0,1.8,0.1,/,0.69,-2.3,0
COc1ccc(N2CCN(Cc3cc(=O)oc4ccc5ccccc5c34)CC2)cc1,11,5.9,-2.0,1%,0.77,1.4,-1
Cc1ccc(SCCNS(C)(=O)=O)cc1,-5.2,-1.2,1.8,?,0.7,-0.4,9

# Shown with tabs: entries from further up.
SMILES	LANA-H2A inh	UCH37 DUB inh	Bfl-1 A1 inh	Vif A3G	Ecoli growth	HNF4A DNA FP	B2AR ag
COc1cccc(CN(C)C(=O)CSC(C)C(=O)Nc2cc(C)on2)c1OC (stereo not given)	-7.1	4.6	-0.3	-6%	0.68	1.0	-1
CSc1ccccc1NC(=O)c1cc(CC(C)C)on1	-6.8	5.2	/	-1%	0.75	-0.2	11
C/C(=N\NC(=O)c1nnn(-c2nonc2N)c1C(C)C)c1ccncc1	2.2	/	0.7	-6%	/	-0.8	-1
